Cruzain inh noDet: blocks cruzain activity in detergent-free assay; purified cruzain, Z-FR-AMC fluorescence, no detergent; Potency, µM, for the others: max response, negative = inhibition, hits mostly inhibitors; 200,000 tested, 2.3% active; active = well fitted curve in the direction sought with a large enough effect; inconclusive = small, poorly fitted or top-dose-only effect, or another doubt; inactive = no such curve, though single readings can be large; an effect the other way counts as inactive or inconclusive;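 also: plate controls were enzyme without inhibitor for no effect and buffer without enzyme for full effect; nearly all actives have a fitted effect of over 40% in size; top concentration of the series not given in the record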
Target sequence (P25779 123-467 limits assumed): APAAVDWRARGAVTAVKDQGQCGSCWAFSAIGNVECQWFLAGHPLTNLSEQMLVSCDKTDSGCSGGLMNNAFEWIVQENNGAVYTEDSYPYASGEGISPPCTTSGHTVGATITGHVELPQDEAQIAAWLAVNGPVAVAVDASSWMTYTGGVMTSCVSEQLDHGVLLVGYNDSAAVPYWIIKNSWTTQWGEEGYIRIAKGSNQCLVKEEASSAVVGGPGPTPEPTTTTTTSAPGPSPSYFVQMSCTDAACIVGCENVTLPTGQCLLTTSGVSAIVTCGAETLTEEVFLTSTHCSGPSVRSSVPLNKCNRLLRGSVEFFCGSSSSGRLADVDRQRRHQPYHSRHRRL
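Detergent-free condition (0.00005% Triton X-100) in acetate buffer pH 5.5 with DTT. 1.5 nM enzyme and compound were pre-mixed 15 min, then 2 uM Z-FR-AMC substrate added; reaction progress from fluorescence change between first and third reads (60 s).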
SARS PLpro yeast: SARS-CoV PLP inhibition in yeast | Potency, µM (titrated, usually from 32.9 µM), for inactives: at the top dose activity, positive = growth rescue | S. cerevisiae expressing SARS-CoV PLpro, growth rescue; control for the full effect not named in the record | 330,000 tested, 0.19% active; also: 0% is about no effect; nearly all actives have a fitted effect of over 55% in size; growth read by luminescence after 48 h
Cruzain inh Det: cruzain (T. cruzi) inhibition with detergent; purified cruzain, Z-FR-AMC fluorescence, 0.01% Triton; Potency, µM, for inactives: max response, negative = inhibition, actives largely listed as inhibitors; 200,000 tested, 0.43% active; AID 1478; active = well fitted curve in the direction sought with a large enough effect; inconclusive = small, poorly fitted or top-dose-only effect, or another doubt; inactive = no such curve, though single readings can be large; an effect the other way counts as inactive or inconclusive;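 also: plate controls were neutral wells for no effect and buffer without enzyme for full effect; nearly all actives have a fitted effect of over 40% in size; top concentration of the series not given in the record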
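Cruzain (1.5 nM) preincubated 15 min at RT with compound in 100 mM sodium acetate pH 5.5, 5 mM DTT, 0.01% Triton X-100. Reaction started with 2 uM Z-FR-AMC; AMC fluorescence (ex 360/em 450 nm) change over 60 s gave rate.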
StopGo reporter: FMDV 2A StopGo reporter, luciferase signal | human cells with a luciferase reporter of 2A StopGo recoding; control for the full effect not named in the record | Potency, µM (top dose mostly 57.9 µM), without a hit: at the top dose signal change, negative = less light | 410,000 tested, 1.2% active; active = well fitted falling curve with a large enough effect; inconclusive = small, poorly fitted or top-dose-only effect; inactive = no such curve, though single readings can be large or run the other way; tested in HEK293T cells; also: % is scaled to controls: 0 for no effect and ±100 for the full control effect; nearly all actives have a fitted effect of over 45% in size; luciferase light after 4 h
LASV entry inh: Lassa virus entry inhibition | 300,000 tested, 1.2% active | AID 540256 | Potency, µM (series often up to 37.9 µM), for inactives: at the top dose activity change, negative = inhibition, actives largely listed as inhibitors | Lassa virus pseudotype entry inhibition, cell reporter; control for the full effect not named in the record; active means well fitted inhibition curve with a large enough effect; inconclusive means small, poorly fitted or top-dose-only effect, or effect the other way; inactive means flat fitted curve, though single readings scatter; tested in HEK293 cells; also: % is scaled to controls: 0 for no effect and ±100 for the full control effect; nearly all actives have a fitted effect of over 50% in size; luciferase read-out
NS1 inh: inhibitors of influenza NS1 protein function | S. cerevisiae slowed by influenza A NS1, growth recovery by OD600 | Potency, µM (titrated, usually from 46.1 µM), for the others: top-dose activity, positive = more growth | 270,000 tested, 0.4% active | AID 2326; also: actives are rising curves; nearly all actives have a fitted effect of over 50% in size
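Recovery from NS1-induced slow growth read by OD600 in budding yeast switched to galactose assay medium (pH 6.0, -URA) at 1:100 dilution. Compound 23 nl per well; the matching strain lacking NS1 serves as control.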
RE007 growth inh: less growth of the S. pombe RE007 Vpr strain; Potency, µM (series often up to 92.2 µM), inactives show at the highest dose activity change, negative = less growth; S. pombe RE007 Vpr strain, BacTiter-Glo ATP luminescence, 24 h; control for the full effect not named in the record; 360,000 tested, 0.21% active; active = well fitted falling curve with a large enough effect; inconclusive = small, poorly fitted or top-dose-only effect; inactive = no such curve, though single readings can be large or run the other way;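 also: % is scaled to controls: 0 for no effect and ±100 for the full control effect; nearly all actives have a fitted effect of over 50% in size; the assay follows cell death caused by Vpr and the record does not say whether a fall means rescue or toxicity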
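Fission yeast RE007 carrying one integrated HIV-1 vpr copy, seeded at OD 0.01 in PMG+AL medium with 23 nL pinned compound. Grown 24 h at 30 degrees; viability read by BacTiter-Glo luminescence after 5 min.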
Marburg entry inh: Marburg virus entry inhibition; Marburg virus pseudotyped entry inhibition, cell reporter; control for the full effect not named in the record; about a third of the inactives were read at about 46 µM; 300,000 tested, 1.8% active; AID 540276; Potency, µM (top dose mostly 37.8 µM), inactives show at the top dose activity change, negative = inhibition, most hits filed as inhibitors; active = well fitted inhibition curve with a large enough effect; inconclusive = small, poorly fitted or top-dose-only effect, or effect the other way; inactive = flat fitted curve, though single readings scatter; tested in HEK293 cells; about a fifth of its hits are not listed in these tables; also: % is scaled to controls: 0 for no effect and ±100 for the full control effect; luciferase read-out
Numbers without * were called inactive; ? = inconclusive; · = no result given; & = joins results of further samples; [ ] = another dose, or the depositor's remark. Unless noted, calls follow the shape of the dose curve; as a rule, active means well fitted rising curve with a large enough effect; inconclusive means small, poorly fitted or top-dose-only effect; inactive means no such curve, though single readings can be large or run the other way. Potency is read from the fitted curve at half-maximal effect.

SMILES | Cruzain inh noDet | SARS PLpro yeast | Cruzain inh Det | StopGo reporter | LASV entry inh | NS1 inh | RE007 growth inh | Marburg entry inh
COC(=O)C1=C(CS(=O)(=O)c2ccccc2)NC(=O)NC1c1ccc(O)cc1 (stereo not given) | · | 7% | · | -5% | · | -8% | -5% | ·
Cc1ccc(SC[C@H](Cc2ccccc2)N2CCN(CCc3ccccc3)CCC2=O)cc1 | · | 0% | · | -22% | · | 0% | 11% | ·
O=S(=O)(NCC1CCCO1)c1ccc(Cl)nc1 (stereo not given) | · | -1% | · | 15% | 25%[46.1 µM] | 5% | 8% | 0%[46.1 µM]
COc1ccc(C(=O)OCC2CC(c3ccccc3)=NO2)cc1OC (stereo not given) | · | 0% | · | -21% | -3% | -7% | -13% | 10%
COc1ccccc1-c1c(C)nn2c(N3CCN(c4ccc(Cl)cc4)CC3)cc(C)nc12 | 0% | · | 0.0% | ? | -2%[46.1 µM] | · | · | ·
COc1cccc(C(=O)OCC(=O)N2CCc3ccccc3C2)c1OC | · | -6% | · | 17% | -1% | · | -12% | ?
Cc1cccc(C)c1NC(=O)C1C2C=CC(C2)C1C(=O)O (stereo not given) | · | -3% | · | -7% | 8% | 9% | -3% | -20%
CCN(CC)CCn1c(O)c(N=O)c2ccccc21 | -1% | 5% | 1.8% | 0% | 0% | 1% | 5% | -1%&-1%
O=C(NCC(c1cccnc1)N1CCN(c2ccc(F)cc2)CC1)OCc1ccccc1 (stereo not given) | 10% | 4% | -7.3% | ? | ? | -40% | 2% | ?
Cc1nc(C)c(-c2ccc(SCc3ccc([N+](=O)[O-])cc3)nn2)s1 | · | -3% | · | -29% | · | -8% | -18% | ·
CCOC(=O)c1c(C)[nH]c(C)c1C(=O)CSc1nc2ccccc2c(=O)n1-c1ccc(C)cc1 | 7% | 6% | -9.6% | -11% | -12% | ? | -3% | 3%
S=C(NCCNC(=S)Nc1ccccc1Cl)Nc1ccccc1Cl | · | 0% | · | 24% | ? | 3% | 9% | ?
COc1ccc2[nH]c3c(NCCC4=CCCCC4)ncnc3c2c1 | · | 1% | · | -61% | ? | · | -14% | 10µM*
CCOC(=O)C1CCN(C(=O)c2cccc(S(=O)(=O)Nc3ccc(C)cc3C)c2)CC1 | · | 0% | · | 5% | -5% | -4% | -12% | -9%[46.1 µM]
COc1ccc(NC(=O)c2cc(-c3ccccc3F)no2)cc1 | 13% | · | 0.1% | 54%[activator] | 0%[46.1 µM] | · | · | ·
O=C(Cn1cnc2cc([N+](=O)[O-])ccc2c1=O)Nc1ccc2c(c1)CCC2 | 16µM* | 5% | 0.5% | ? | 0% | 14% | 11% | 3%
CCOC(=O)c1csc(NC(=O)CN2CCCCC2)n1 | · | -2% | · | -3% | 2%[46.1 µM] | 6% | -11% | 18%[46.1 µM]
Cc1nn(-c2ccccc2)c2c1c(C)c(CCC(=O)N1CCOCC1)c(=O)n2C | · | 1% | · | -17% | ? | -1% | -6% | ?
Cc1ccc(-c2cc(-c3ccccc3)nc(N/N=C/c3cccnc3)n2)cc1 | · | · | · | 17% | -19%[14.3 µM] | · | -10% | ?
Cn1c(C(=O)OC(C(=O)NC(C)(C)C)c2cccnc2)cc2sccc21 (stereo not given) | · | 1% | · | -14% | ? | 6% | 6% | ?
CCOC(=O)c1cnn(-c2ncnc3sc4c(c23)CCC4)c1N | ? | 8% | -4.5% | · | -13% | -36% | 14% | -13%
Cc1ccc(Cl)cc1NC(=O)c1csnn1 | -10% | · | -4.0% | 4% | -16%[46.1 µM] | · | · | ?
O=C(CSc1nc2c(oc3ccccc32)c(=O)n1-c1ccccc1)Nc1ccc(F)c(Cl)c1 | -3% | · | -3.6% | 0% | · | · | · | -17%[46.1 µM]
Cc1nc(SCc2cccc(Oc3ccccc3)c2)n[nH]1 | 1% | -29% | -2.8% | 19% | ? | -173% | -19% | -28%
Cn1c(/C=C/c2ccccc2)nc2ccccc2c1=O | · | 2% | · | 21% | 9% | -2% | -2% | ?
CS(=O)(=O)c1ccc2nc(NC(=O)CS(=O)(=O)c3ccc(Cl)cc3)sc2c1 | 3% | · | 0.7% | -6% | -1%[46.1 µM] | · | · | ·
COc1cccc(CNC(=O)CCc2c(C)nc3c(c(C)nn3-c3ccc(C)c(C)c3)c2C)c1 | -22% | · | -3.5% | -27% | -8%[46.1 µM] | · | · | ?
COCCCn1cc(C(=O)c2cc(Br)ccc2O)cc(C#N)c1=O | · | 0% | · | -10% | ? | · | -2% | 1.6µM*
CCCC1Cc2nc(N3CCCCC3)c(C#N)cc2CO1 (stereo not given) | -3% | -16% | 2.1% | -20% | -9% | -32% | -12% | -7%
CCC(=O)Nc1c2c(nn1-c1cccc(Cl)c1)CSC2 | 7% | -7% | -0.8% | -15% | 21% | 2% | 3% | -9%
Cc1nc(-c2nc(-c3c(C(=O)NN)noc3C)cs2)cs1 | · | 2% | · | 31%[activator] | 12%[46.1 µM] | · | 13% | ?
Cc1ccc(CNC(=O)Cc2ccc(-n3cccc3)cc2)cc1 | ? | 17% | -1.2% | -2% | ? | 12% | 7% | ?
COC(=O)c1c(C)[nH]c(C)c1C(C)=O | · | 0% | · | 0% | 1% | 0% | 2% | 2%[46.1 µM]
Cc1cccc(NCc2nc3ccccc3n2C)c1 | ? | -24% | 8.5% | · | ? | -12% | -10% | 15%
O=C(Cn1cc([N+](=O)[O-])cn1)N1CCc2ccccc21 | -5% | 1% | 2.9% | · | -6% | 14% | 3% | 0%
CCC(=O)N(Cc1cc2ccc(C)cc2n2nnnc12)C1CCCCC1 | 22% | -7% | -4.1% | -21% | -2% | -4% | -7% | -3%
COc1ccc(-c2cn3c(n2)sc2cc(C(=O)NCc4ccccc4OC)ccc23)cc1 | 19% | · | -5.8% | 12% | -12%[46.1 µM] | · | · | ·
CSc1ncccc1C(=O)NC(C)CCc1ccccc1 (stereo not given) | · | -2% | · | -6% | · | -6% | 19% | ·
COc1ccc(-c2ccc(SCC(=O)c3ccc(F)cc3)nn2)cc1OC | · | -4% | · | -22% | ? | ? | -18% | -1%[46.1 µM]
CCc1nc(SCC(=O)Nc2ccc(OC)cc2[N+](=O)[O-])n[nH]1 | · | -1% | · | -14% | · | 6% | 16% | ·

Three entries out of the list, arranged by heavy-atom count, low to high:
SMILES | Cruzain inh noDet | SARS PLpro yeast | Cruzain inh Det | StopGo reporter | LASV entry inh | NS1 inh | RE007 growth inh | Marburg entry inh
CCCC1Cc2nc(N3CCCCC3)c(C#N)cc2CO1 (stereo not given) | -3% | -16% | 2.1% | -20% | -9% | -32% | -12% | -7%
CCOC(=O)c1cnn(-c2ncnc3sc4c(c23)CCC4)c1N | ? | 8% | -4.5% | · | -13% | -36% | 14% | -13%
COc1ccc(-c2ccc(SCC(=O)c3ccc(F)cc3)nn2)cc1OC | · | -4% | · | -22% | ? | ? | -18% | -1%[46.1 µM]

(cont.)
SMILES | Cruzain inh noDet | SARS PLpro yeast | Cruzain inh Det | StopGo reporter | LASV entry inh | NS1 inh | RE007 growth inh | Marburg entry inh
COc1ccc(S(=O)(=O)NC2CCCCC2)cc1C | 2% | -10% | 1.6% | · | 19% | -53% | 14% | -8%
O=C(CC(C(=O)O)C1CCCO1)Nc1cccc(C(F)(F)F)c1 (stereo not given) | 5% | 4% | 0.4% | 11% | 6% | 5% | -2% | 1%
COCCOC(=O)c1c(NC(=O)CN2CCOCC2)sc(C(N)=O)c1C | 12% | -5% | 1.3% | -18% | 10% | -1% | 0% | -2%
COc1cc(/C=C2\SC(=S)N(CCC(=O)Nc3ccccn3)C2=O)cc(OC)c1OC | · | -1% | · | ? | -22% | 23% | -12% | -2%[46.1 µM]
CCOC(=O)c1c2c(n(C)c1C)C(=O)C(=O)c1ccc(Br)cc1-2 | · | · | · | 8.9µM* | ? | · | -19% | ?
CCOC(=O)/C(C#N)=C/c1cccn1-c1ccc(Cl)cc1 | · | 0% | · | 0% | -11% | -2% | -2% | ?
CCN(Cc1ccccc1)C(=O)C(C)OC(=O)c1cc(S(=O)(=O)Nc2c(C)n(C)n(-c3ccccc3)c2=O)ccc1C (stereo not given) | · | -2% | · | 0% | -20% | -4% | -10% | -1%
CCN(CC)c1ccc2cc(-c3nc(-c4ccc(Cl)cc4Cl)cs3)c(=O)oc2c1 | 8% | · | 1.7% | -13% | -8%[46.1 µM] | · | · | ·
CCn1cnc2cc(NCc3cccc(OC)c3O)ccc21 | -4% | 0% | -2.2% | · | -1% | -6% | -20% | -4%
O=C1CCc2cc(S(=O)(=O)NCc3ccccc3Cl)cc3c2N1CC3 | 6% | -2% | -1.6% | 16%&25% | ? | · | -6% | -18%&-18%
COC(=O)c1ccc(Oc2ccc3nnc(C)n3n2)cc1 | 15% | -17% | -0.3% | 4% | 11% | -5% | 21% | 7%
CCCCCC(=O)Nc1ccc(S(=O)(=O)Nc2nccc(C)n2)cc1 | · | 0% | · | 21% | -2%[46.1 µM] | · | -9% | 1%[46.1 µM]
Cc1nnsc1-c1nnc(SCC(=O)c2ccc(C#N)cc2)n1C1CC1 | · | 0% | · | -7% | · | 7% | -9% | ·
Oc1ccc(/C=N/Nc2ncnc3c2ncn3Cc2ccccc2)cc1O | -12% | ? | -9.1% | 13% | ? | 14µM* | 8% | ?
Fc1ccc(CSc2nnc(-c3cnccn3)n2Cc2ccco2)cc1 | -3% | -2% | -7.6% | 4% | 10% | -37% | 5% | -21%
COc1cc(S(=O)(=O)NCc2ccncc2)c(OC)cc1Cl | · | 1% | · | 42%[activator] | -28% | 6% | 5% | 1%[46.1 µM]
Nc1nc(SCC(=O)N2CCCCC2)[nH]c(=O)c1NC(=O)c1ccccc1F | · | -5% | · | -2% | 1% | -11% | -12% | 16%
COc1cc(/C=N/NC(=O)C2COc3ccccc3O2)cc(OC)c1OC (stereo not given) | 0% | 8% | -5.6% | -7% | ? | -28% | · | -16%
CCCCNC(=O)Cc1ccc(Br)cc1 | · | 0% | · | 13% | -1% | 2% | -4% | 0%[14.2 µM]
O=C(c1cn(-c2ccccc2)nc1-c1ccc(F)cc1)N1CCCCC1 | 9% | -17% | -6.0% | 2% | 0% | -12% | -2% | ?

High-throughput results as filed in PubChem BioAssay.
